rRNA inh HTS = inhibitors of bacterial rRNA selective over humanized ribosomes; E. coli WT GFP vs humanized-ribosome RFP mutants, fluorescence, 24 h; stronger effect = lower value; DMSO median 0, no signal -100; 350,000 tested, 1.6% active; GFP signal change (wild-type ribosome), % (concentration not given with the values); AID 720706;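 active means significant combined selectivity score with lowered wild-type GFP, culture density cut under 30%, mutant RFP and density less affected; inactive means any of these conditions unmet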; further: one replicate is shown; some compounds called inactive have numbers as strong as hits
rRNA inh HTS OD600 = further read-out of rRNA inh HTS, marked with its call; OD600 change, %; measured here: OD600 growth;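 optical density of the mix in the first replicate; 0 = DMSO median and -100 = no signal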
rRNA inh HTS RFP = recorded beside rRNA inh HTS, whose call it bears; RFP signal change, %; measured here: RFP humanized mutant strains;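 first replicate; 0 = DMSO median and -100 = no signal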
* = called active by the depositor. Not all compounds are listed; rates above refer to the full screens.

Each structure is followed by: rRNA inh HTS	rRNA inh HTS OD600	rRNA inh HTS RFP
- COc1ccc(OC)c(CN2CCN(C(=O)c3cccc(S(=O)(=O)N(C)c4ccccc4)c3)CC2)c1
  -4	-12	3.7
- COCCNC(=O)C1(C)CCCN(Cc2ccc(C)c3ccccc23)C1 (stereo unspecified)
  -1	2	3.1
- C[C@H](CO)N1C[C@H](C)[C@H](CN(C)Cc2ccccc2)Oc2c(NS(=O)(=O)c3ccc(Cl)cc3)cccc2C1=O
  -2	-15	-1.9
- COc1ccc(NC(=O)Nc2ccc3c(c2)C(=O)N([C@@H](C)CO)C[C@@H](C)[C@H](CN(C)C(=O)CCCN(C)C)OCCCC[C@H](C)O3)cc1
  -1	2	-1.1
- CC(C)C#Cc1ccc([C@H]2[C@H](CO)N3CCCCN(CC4CC4)C[C@@H]23)cc1
  6	-5	8.0
- CCCC(=O)Nc1ccc2c(c1)C(=O)N(C)[C@H]1CC[C@@H](CC(=O)NCc3ccccc3Cl)O[C@H]1CO2
  -5	-14	0.0
- C[C@@H]1CN([C@H](C)CO)C(=O)Cc2cc(NC(=O)CCC(F)(F)F)ccc2O[C@@H]1CN(C)Cc1ccc(Oc2ccccc2)cc1
  -5	-13	2.3
- C[C@@H]1CN([C@@H](C)CO)S(=O)(=O)c2ccc(C#CC3(O)CCCC3)cc2O[C@H]1CN(C)C(=O)Cc1ccncc1
  0	6	1.4
- C[C@H](CO)N1C[C@H](C)[C@H](CN(C)CC2CC2)Oc2c(NS(=O)(=O)c3ccc(F)cc3)cccc2C1=O
  1	5	-0.4
- COc1ccc(NC(=O)Nc2ccc3c(c2)CC(=O)N([C@H](C)CO)C[C@@H](C)[C@H](CN(C)C(=O)NC2CCCCC2)O3)cc1
  1	1	-0.7
- C[C@H]1CN([C@@H](C)CO)C(=O)c2cc(-c3ccccc3F)cnc2O[C@@H]1CN(C)C
  10	8	-3.1
- Cc1ccc(CN(C)C[C@H]2OCc3cn(nn3)CCCC(=O)N([C@H](C)CO)C[C@H]2C)cc1
  4	6	-0.3
- C[C@@H]1CN([C@H](C)CO)S(=O)(=O)c2ccc(C#Cc3ccc(F)cc3)cc2O[C@H]1CN(C)S(=O)(=O)c1cn(C)cn1
  2	-20	18
- N#C[C@@H]1[C@H](c2ccccc2C2=CCCCC2)[C@H](CO)N1C(=O)CN1CCOCC1
  -4	-12	-0.9
- COc1ccccc1-c1cn(CC[C@@H]2CC[C@H](NC(=O)c3ccccc3F)[C@@H](CO)O2)nn1
  -3	-6	-1.7
- CCCc1c(C(=O)N/N=C/C2CC=CCC2)nnn1-c1nonc1N (stereo unspecified)
  1	8	-1.8
- O=C(c1ccc(F)cc1)N1CC(=O)N2[C@@H](CO)[C@@H](c3ccc(-c4ccccc4F)cc3)[C@@H]2C1
  1	-9	0.8
- C[C@@H]1CN([C@@H](C)CO)C(=O)Cc2cc(NC(=O)Nc3ccc4c(c3)OCO4)ccc2O[C@H]1CN(C)Cc1ccc(C(=O)Nc2ccccc2N)cc1
  -6	-3	-5.2
- CCS(=O)(=O)N1Cc2cc(C(=O)N(C)C)nc(-c3cccc(-c4ccc(F)cc4)c3)c2[C@H]1CCO
  3	4	-0.8
- Clc1ccc(-c2nc3ccc(Cl)cn3c2Cc2cccc(Cl)c2)cc1
  -13	-23	2.6

One compound at a time (already shown):
N#C[C@@H]1[C@H](c2ccccc2C2=CCCCC2)[C@H](CO)N1C(=O)CN1CCOCC1 is listed as rRNA inh HTS: -4; rRNA inh HTS OD600: -12; rRNA inh HTS RFP: -0.9
COc1ccc(NC(=O)Nc2ccc3c(c2)C(=O)N([C@@H](C)CO)C[C@@H](C)[C@H](CN(C)C(=O)CCCN(C)C)OCCCC[C@H](C)O3)cc1 is listed as rRNA inh HTS: -1; rRNA inh HTS OD600: 2; rRNA inh HTS RFP: -1.1

(listing goes on)
Each structure is followed by: rRNA inh HTS	rRNA inh HTS OD600	rRNA inh HTS RFP
- CNC[C@H]1Oc2ccc(NS(C)(=O)=O)cc2C(=O)N(C)C[C@@H]1C
  0	3	-0.6
- COc1ccc([C@H]2C[C@H](O)C[C@@H](CCn3cc(-c4ccccc4)nn3)O2)cc1
  -22*	-3.1*	4.7*
- C[C@@H]1CN([C@H](C)CO)C(=O)c2cc(-c3cccnc3)cnc2O[C@@H]1CN(C)C(=O)Nc1ccc(C(F)(F)F)cc1
  0	5	2.1
- CCCC#Cc1ccc2c(c1)O[C@@H](CN(C)C(C)=O)[C@@H](C)CN([C@@H](C)CO)S2(=O)=O
  -2	7	-5.8
- OC[C@H]1[C@H](c2ccc(Br)cc2)[C@H]2CN(Cc3cncnc3)CCCCN21
  5	7	-3.5
- Cc1noc(C)c1S(=O)(=O)N(C)C[C@@H]1Oc2ccc(NC(=O)NC(C)C)cc2CC(=O)N([C@H](C)CO)C[C@H]1C
  3	-1	-0.4
- Cc1noc(C)c1S(=O)(=O)Nc1ccc2c(c1)C(=O)N([C@@H](C)CO)C[C@@H](C)[C@H](CN(C)Cc1ccccc1)OCCCC[C@H](C)O2
  -2	2	-2.0
- O=C(Cc1ccccn1)N[C@@H]1CC[C@H](CCn2cc(-c3ccc(F)cc3)nn2)O[C@H]1CO
  -1	-1	0.4
- C[C@@H]1CCCCO[C@@H](CN(C)C(=O)Nc2cccc3ccccc23)[C@@H](C)CN([C@H](C)CO)C(=O)c2cc(NC(=O)Cc3ccccc3)ccc2O1
  -3	1	-2.3
- CCC(=O)Nc1ccc2c(c1)C(=O)N(C)C[C@H](OC)[C@@H](C)CN(Cc1nccs1)[C@H](C)CO2
  0	2	-0.7
- COC(=O)[C@H]1[C@H](CO)[C@H]2Cn3c(ccc(-c4cccnc4)c3=O)[C@H]2N1Cc1cccc(F)c1
  0	-6	2.9
- CCc1nc2ccc(C(=O)NCCc3ccccn3)cn2c1N(C)Cc1ccc(N(C)C)cc1
  -10	4	-1.1
- Cc1ccc(S(=O)(=O)Nc2ccccc2O)cc1
  -8	-1	-2.4
- O=C([C@H]1[C@H](CO)[C@H]2Cn3c(cccc3=O)[C@@H]1N2CC1CCCC1)N1CCCCC1
  -3	-2	0.2
- Cc1ccc(S(=O)(=O)N(C)C[C@@H]2OCCCC[C@H](C)Oc3ccc(NS(=O)(=O)c4cccs4)cc3C(=O)N([C@@H](C)CO)C[C@H]2C)cc1
  -2	1	1.2
- COc1ccc(OC)c(NC(=O)C2CCCN2S(=O)(=O)c2ccc3c(c2)CC(C)N3C(C)=O)c1 (stereo unspecified)
  -16	-13	0.4
- C[C@@H]1CCCCO[C@H](CN(C)C(=O)Nc2ccc(F)cc2)[C@@H](C)CN([C@@H](C)CO)C(=O)c2cc(N(C)C)ccc2O1
  0	2	3.2
- COCC(=O)N(C)C[C@H]1Oc2cc(-c3cncnc3)ccc2S(=O)(=O)N([C@@H](C)CO)C[C@@H]1C
  3	13	1.0
- Cc1ccc(S(=O)(=O)N2[C@@H](Cc3ccccc3)CO[C@H]2CC(=O)c2cccc3ccccc23)cc1
  15	16	-1.7
- O=S(=O)(c1ccccc1F)N1CC[C@@H]2[C@H]1c1cc(-c3ccc(F)cc3)ccc1N[C@@H]2CO
  -10	-44	30
- NC(=O)c1ccc(NC(=O)COC(=O)C23CC4CC(CC(C4)C2)C3)cc1
  3	13	-0.2
- CC(O)(c1ccccc1)c1nc(-c2ccc(S(C)(=O)=O)cc2)cs1 (stereo unspecified)
  -10	3	0.5
- COCCNc1ncnc2c1ncn2[C@H]1CN(Cc2ccc(OC)cc2)C[C@@H](CO)O1
  11	18	0.2
- CNC(=O)C[C@H]1CC[C@@H]2[C@@H](COc3ccc(NC(=O)C4CC4)cc3C(=O)N2C)O1
  0	-6	0.5
- C[C@@H]1CN([C@H](C)CO)C(=O)c2cc(NS(=O)(=O)c3ccccc3)ccc2O[C@@H](C)CCCCO[C@@H]1CN(C)S(=O)(=O)c1ccc(F)cc1
  2	7	-3.3
- COc1ccc(NC(=O)C[C@@H]2C(=O)N(Cc3ccccc3)CC2(C)C)cc1
  -5	3	-7.7
- C[C@@H]1CN([C@@H](C)CO)C(=O)c2cc(NC(=O)Nc3ccc(C(F)(F)F)cc3)ccc2O[C@H]1CN(C)S(=O)(=O)c1cccs1
  -1	-5	-3.7
- C[C@@H]1CN([C@@H](C)CO)C(=O)c2cc(C3=CCCCC3)cnc2O[C@H]1CN(C)Cc1cccc(F)c1
  -1	-10	-0.4
- COc1ccc2c3c(n(C)c2c1)[C@@H](CO)NCC31CCN(S(=O)(=O)c2ccc(C)cc2)CC1
  -30	-63	19
- C[C@H]1CN([C@@H](C)CO)C(=O)c2cc(NC(=O)Cn3cnnn3)ccc2O[C@H]1CN(C)C(=O)Nc1ccc(C(F)(F)F)cc1
  -3	1	-1.8
- COC(=O)C1=CN(c2cccc(OCc3ccccc3)c2)C(N)=C(C#N)C1c1cccc(F)c1 (stereo unspecified)
  1	6	1.8
- COc1ccc2c3c(n(C)c2c1)[C@@H](CO)N(C(=O)c1ccccn1)CC31CCN(C(C)=O)CC1
  5	13	10
- COc1ccc(NC(=O)Nc2ccc3c(c2)C(=O)N([C@@H](C)CO)C[C@@H](C)[C@@H](CN(C)S(=O)(=O)c2ccc(OC)cc2)O3)cc1
  -1	-25	-6.4
- Cc1noc(C)c1NC(=O)N(C)C[C@H]1OCCCC[C@@H](C)Oc2ccc(NS(=O)(=O)c3c(C)noc3C)cc2C(=O)N([C@@H](C)CO)C[C@H]1C
  5	5	-0.3
- C[C@@H]1CN([C@@H](C)CO)C(=O)c2cccc(NC(=O)c3nc4ccccc4s3)c2O[C@@H]1CN(C)S(=O)(=O)c1ccc(F)cc1
  1	1	-3.1
- C[C@@H]1CN([C@@H](C)CO)C(=O)c2cc(NC(=O)Nc3ccc4c(c3)OCO4)ccc2O[C@H]1CN(C)Cc1ccccc1
  -1	-6	2.6
- C[C@@H]1CCCCO[C@@H](CN(C)C(=O)Nc2cccc3ccccc23)[C@H](C)CN([C@@H](C)CO)C(=O)c2cc(N(C)C)ccc2O1
  -3	-2	1.1
- CCC(=O)N1C[C@@H]2[C@H](c3ccccc31)[C@H](CO)N2C(=O)Nc1ccccc1F
  4	7	-1.0
- COCC(=O)N1CCC2(CC1)CN(Cc1cc(F)ccc1F)[C@H](CO)c1c2c2ccc(OC)cc2n1C
  4	5	-0.4
- COc1cccc(NC(=O)C[C@@H]2CC[C@H]3[C@@H](COc4ccc(NC(=O)c5ccccc5F)cc4C(=O)N3C)O2)c1
  0	-3	-0.6

11 consecutive compounds out of the list so far:
Each structure is followed by: rRNA inh HTS	rRNA inh HTS OD600	rRNA inh HTS RFP
- C[C@H]1CN([C@@H](C)CO)C(=O)c2cc(NC(=O)Cn3cnnn3)ccc2O[C@H]1CN(C)C(=O)Nc1ccc(C(F)(F)F)cc1
  -3	1	-1.8
- COC(=O)C1=CN(c2cccc(OCc3ccccc3)c2)C(N)=C(C#N)C1c1cccc(F)c1 (stereo unspecified)
  1	6	1.8
- COc1ccc2c3c(n(C)c2c1)[C@@H](CO)N(C(=O)c1ccccn1)CC31CCN(C(C)=O)CC1
  5	13	10
- COc1ccc(NC(=O)Nc2ccc3c(c2)C(=O)N([C@@H](C)CO)C[C@@H](C)[C@@H](CN(C)S(=O)(=O)c2ccc(OC)cc2)O3)cc1
  -1	-25	-6.4
- Cc1noc(C)c1NC(=O)N(C)C[C@H]1OCCCC[C@@H](C)Oc2ccc(NS(=O)(=O)c3c(C)noc3C)cc2C(=O)N([C@@H](C)CO)C[C@H]1C
  5	5	-0.3
- C[C@@H]1CN([C@@H](C)CO)C(=O)c2cccc(NC(=O)c3nc4ccccc4s3)c2O[C@@H]1CN(C)S(=O)(=O)c1ccc(F)cc1
  1	1	-3.1
- C[C@@H]1CN([C@@H](C)CO)C(=O)c2cc(NC(=O)Nc3ccc4c(c3)OCO4)ccc2O[C@H]1CN(C)Cc1ccccc1
  -1	-6	2.6
- C[C@@H]1CCCCO[C@@H](CN(C)C(=O)Nc2cccc3ccccc23)[C@H](C)CN([C@@H](C)CO)C(=O)c2cc(N(C)C)ccc2O1
  -3	-2	1.1
- CCC(=O)N1C[C@@H]2[C@H](c3ccccc31)[C@H](CO)N2C(=O)Nc1ccccc1F
  4	7	-1.0
- COCC(=O)N1CCC2(CC1)CN(Cc1cc(F)ccc1F)[C@H](CO)c1c2c2ccc(OC)cc2n1C
  4	5	-0.4
- COc1cccc(NC(=O)C[C@@H]2CC[C@H]3[C@@H](COc4ccc(NC(=O)c5ccccc5F)cc4C(=O)N3C)O2)c1
  0	-3	-0.6

New compounds follow
Each structure is followed by: rRNA inh HTS	rRNA inh HTS OD600	rRNA inh HTS RFP
- COc1ccc(NC(=O)Nc2ccc3c(c2)C(=O)N([C@@H](C)CO)C[C@H](C)[C@@H](CN(C)C)OCCCC[C@H](C)O3)cc1
  1	2	-0.8
- C[C@@H]1CN([C@@H](C)CO)C(=O)Cc2cc(NC(=O)c3ccncc3)ccc2O[C@@H]1CN(C)C(=O)Nc1ccc2c(c1)OCO2
  -1	2	0.1
- CO[C@H]1CN(C)C(=O)c2cc(NC(=O)CC(F)(F)F)ccc2OC[C@H](C)N(C(C)=O)C[C@@H]1C
  3	0	1.1
- CN(CC(=O)Nc1ccc(Cl)c(C(F)(F)F)c1)C(=O)COc1cccc2cccnc12
  4	14	3.6
- COCC(=O)Nc1ccc2c(c1)[C@H]1C[C@@H](CC(=O)NCCN3CCCCC3)O[C@@H](CO)[C@H]1O2
  1	-3	-0.1
- CO[C@H]1CN(C)C(=O)c2cc(NC(=O)Cc3ccccc3)ccc2OC[C@H](C)N(C)C[C@H]1C
  2	0	0.0
- CN(C)CC(=O)Nc1ccc2c(c1)[C@@H]1C[C@@H](CC(=O)NCC3CC3)O[C@@H](CO)[C@@H]1O2
  5	11	-2.6
- O=C(CC1CC1)N1CC2(C1)[C@@H](c1ccccc1)[C@H](CO)N2CC1CCOCC1
  2	7	-2.4

Source: PubChem (Broad Institute)
